GIV Gai3 FP = inhibitors of GIV peptide binding to Galpha-i3, primary screen, biochemical, fluorescence polarization, FITC-GIV GBA peptide, rat Galphai3 | AID 1224905, 2016 | 210,000 compounds, 0.42% hits | Guanine nucleotide-binding protein G(i) subunit alpha-3 (Rattus norvegicus), P08753 | 90 min; stronger effect = lower value; scaled: aluminum fluoride 0%, vehicle 100% | percent of control (FP), % (no concentration beside the values);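 active means replicate mean at 85% of control or lower, very high polarization wells dropped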;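 further: wells of about 15 µL received 100 nL stock; the first replicate is given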
Target sequence (P08753 whole entry, looked up): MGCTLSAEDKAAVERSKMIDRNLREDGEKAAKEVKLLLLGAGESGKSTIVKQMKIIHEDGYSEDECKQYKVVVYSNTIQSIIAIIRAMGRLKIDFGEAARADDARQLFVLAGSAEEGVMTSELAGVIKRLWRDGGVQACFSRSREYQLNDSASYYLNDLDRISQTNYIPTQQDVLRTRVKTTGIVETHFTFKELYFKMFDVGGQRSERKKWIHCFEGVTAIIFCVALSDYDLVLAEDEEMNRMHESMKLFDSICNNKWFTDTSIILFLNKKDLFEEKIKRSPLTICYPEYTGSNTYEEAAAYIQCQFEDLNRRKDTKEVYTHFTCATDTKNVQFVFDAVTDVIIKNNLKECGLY
HCMV UL50-53 inh = inhibitors of HCMV UL50-UL53 interaction, biochemical, HTRF | normalized percent inhibition | inhibition, % (no concentration beside the values) | 190,000 compounds, 0.15% hits;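 active means both replicates at 50% or more, plus weaker picks with an unusually low signal ratio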;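 further: stock transfer was 100 nL into about 20 µL; 0% = negative control wells and 100% = wells with untagged competitor protein; inactives centre near -12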
Sa growth inh = S. aureus growth inhibition at 42 and 30 °C, primary screen, LtaS inhibitor project, RN4220, two temperatures; relative growth, % (test concentration not listed); AID 720641, 2013; 170,000 compounds, 0.53% hits; OD600, 20 h, 42 °C; stronger effect = lower value;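 active means growth at 42 °C up to 50% and 20 or more points under that at 30 °C, or under 10% at both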;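 further: 300 nL library stock went into each well; scaled to the means of positive and negative controls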
Sa growth inh second temp = second read-out of Sa growth inh, no call of its own (marks repeat the call); relative growth, %; measured here: growth at 30 °C;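 optical density after 20 h as mean of two plates; 100% = untreated growth and lower means inhibition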
Numbers without * were called inactive; . = not tested or not shown; & = joins results of further samples.

SMILES	GIV Gai3 FP	HCMV UL50-53 inh	Sa growth inh	Sa growth inh second temp
COc1cc2c(cc1OC)CN(C(=O)c1ccc(N3C(=O)C(C)CS3(=O)=O)cc1Cl)CC2 (centres undefined)	113	-11	.	.
CCOc1ccc(Sc2cc(C(=O)NCCc3ccc(OC)c(OC)c3)c3ccccc3n2)cc1	98	.	119	88
Cn1c(SCC(=O)c2cc(Cl)c(Cl)s2)nnc1-c1ccco1	105	-28	118	46
Cc1nc2ccccc2c(=O)n1Cc1noc(C2CCCO2)n1 (centres undefined)	113	6	.	.
O=C(Nc1ccc(C(=O)OCc2cc(=O)n3nc(C4CC4)sc3n2)cc1)c1ccc(F)cc1	106	.	84	89
CC(C)(C)C(=O)NCCc1csc2nc(-c3ccc(F)cc3)nn12	111	.	88	86
CCCCN(CC)c1nc(N)c(C#N)c(CC#N)c1C#N	.	1	100	84
COc1ccc(Br)cc1CNC(=O)C1CCN(c2ccc(Cl)cc2)C1=O (centres undefined)	102	-25	.	.
CC(C)c1ccc(NS(=O)(=O)c2ccc(-n3cccn3)cc2)cc1	105	.	96	90
COc1ccc(-c2nc3c4cnn(-c5ccccc5)c4ncn3n2)cc1OC	95	-7	.	.
COc1ccccc1N1CCN(C(=O)c2cc(-c3ccc(C)c(F)c3)on2)CC1	103	8	100	93
CC(C)(CO)NS(=O)(=O)c1ccc2c(c1)C(=NO)c1cc(S(=O)(=O)NC(C)(C)CO)ccc1-2	101	-66	98	95
CN=C1SC(CC(=O)NCc2ccccc2)C(=O)N1/N=C/c1c(C)nn(Cc2ccccc2)c1C (centres undefined)	.	11	90	98
Cn1ccnc1SCC(=O)NC(c1ccccc1)c1ccccc1	.	-16	104	88
CC(C)N(Cc1nnc(-c2ccccc2)o1)C(=O)/C=C/c1cccs1	.	-27	94	83

A few values from the entries so far:
For Sa growth inh, CC(C)(CO)NS(=O)(=O)c1ccc2c(c1)C(=NO)c1cc(S(=O)(=O)NC(C)(C)CO)ccc1-2 is listed with 98
For Sa growth inh second temp, CC(C)(C)C(=O)NCCc1csc2nc(-c3ccc(F)cc3)nn12 is listed with 86

Continued.
SMILES	GIV Gai3 FP	HCMV UL50-53 inh	Sa growth inh	Sa growth inh second temp
CCc1nn(CC(=O)NCc2ccco2)c(=O)c2cc3cc(F)ccc3n12	102	-3	96	80
O=C(NCc1ccc(F)cc1)c1ccc2c(O)c(S(=O)(=O)c3ccccc3)c(=O)[nH]c2c1	100	.	109	88
CCN(CC)S(=O)(=O)c1cc(C(=O)O)ccc1C	103	-10	101	90
c1ccc(C2=NNC(c3ccccc3)C2)cc1 (centres undefined)	.	-20	98	97
CC(C)CCN(Cc1ccco1)C(=O)Cn1ncc2c([nH]c3ccccc32)c1=O	104	.	81	87
C=CCN(Cc1nc(-c2ccc(C)cc2)no1)C(=O)Nc1ccc(C)cc1	98	-12	.	.
Cc1cc(NCn2ncc3ccccc3c2=O)ccc1Br	100	8	110	96
CCC1NCc2c(sc3c2CCCC3)-n2cccc21 (centres undefined)	107	-18	96	82
CC(=O)N1CCN(c2ccc(Oc3ccnc4cc(Cl)ccc34)cc2)CC1	.	-11	93	96
Cc1ccc(S(=O)(=O)NCCc2sc(-c3ccc(F)cc3)nc2C)cc1C	109	22	.	.
CCC(C)[C@@H](C(=O)NCc1ccccc1C)N1Cc2ccccc2C1=O (some centres undefined)	101	.	82	95
Cc1c(C#N)c(Sc2ccccn2)nc2ccccc12	103	2	100	97
Cn1cccc1CC(=O)N/N=C\c1ccccc1	106	-20	94	88
COc1ccc(NC(=O)NC2CCCN2S(=O)(=O)c2ccc(Cl)cc2)cc1 (centres undefined)	.	-9	96	87
O=C(O)C1CCN(c2ncc(C(F)(F)F)cc2Cl)CC1	99	-9	.	.

(next part)
SMILES	GIV Gai3 FP	HCMV UL50-53 inh	Sa growth inh	Sa growth inh second temp
Cn1c(-c2ccco2)nn(C2CC(=O)C3OCC2O3)c1=S (centres undefined)	.	-8	94	81
CCn1c(Cc2ccccc2)nnc1SCc1cccc(C(=O)O)c1	99	-5	102	86
CNC(=O)c1cc(Nc2nnc(-c3ccc(O)cc3)c3ccccc23)ccc1OC	103	-36	85	91
CC(C(=O)NC(N)=O)N1CCc2ccccc21 (centres undefined)	.	3	90	96
COc1ccc(/C=C(\C#N)c2nc3ccccc3n2C)c(OC)c1	103	-39	73	38
O=C(CCN(C(=O)c1ccc(Br)cc1)C1CCCC1)N1CCNCC1	106	-17	.	.
CC(C)(C)c1cc(O)cc(C(C)(C)C)c1	99	.	90	103
COC(=O)c1sc(S(C)(=O)=O)c(C#N)c1-c1cccs1	112	-83	0.2*	0.2*
Cc1cc(=O)oc2cc(OCC(=O)C(C)(C)C)c(Cl)cc12	.	12	96	99
CC12C=CC(CO)(O1)C1C(=O)N(c3ccc(Br)cc3)C(=O)C12 (centres undefined)	100	9	67	63
Cc1cc(C)cc(NC(=O)N2CC3CCCN3c3ccccc32)c1 (centres undefined)	102	-19	.	.
O=c1c(Cl)c(-n2cccn2)cnn1-c1ccc(Cl)cc1Cl	102	-2	61	66
Cc1ccc2cc3c(N)nn(C(=O)c4ccncc4)c3nc2c1	103	0	90	87
Nc1cc(N)cc(C(=O)OCN2C(=O)c3ccccc3C2=O)c1	104	.	98	82
CCCc1cc(=O)n2[nH]cc(-c3ccc(Cl)cc3)c2n1	99	1	-0.6*	-0.4*

Going on with the list:
SMILES	GIV Gai3 FP	HCMV UL50-53 inh	Sa growth inh	Sa growth inh second temp
CN(C)P(=NC(=S)N1CCCC1)(N(C)C)C12CC3CC(CC(C3)C1)C2	.	-27	93	85
O=C1C[C@@H]2[C@@H](CO)[C@H](OC(=O)c3ccc(-c4ccccc4)cc3)C[C@@H]2O1	.	8	142	87
Cc1ccc2c(COC(=O)CCn3c(C)csc3=O)cc(=O)oc2c1	.	12	102	94
Cc1csc(=Nc2cccnc2)n1Cc1ccco1	.	1	112	90
O=C(NCc1cccc(Cl)c1)c1cc2ccc3cccnc3c2[nH]1	102	.	77	98
CCOC(=O)N1CCc2c(sc3c2c(=O)n(Cc2ccccc2)c(=O)n3CC(=O)Nc2c(C)cccc2C)C1	108	-11	92	107
COc1cc(N2CN=c3s/c(=C\C=C\c4ccccc4)c(=O)n3C2)cc(OC)c1OC	102	.	103	84
COc1ccccc1-c1nc2c(c(SCC(=O)Nc3ccccc3F)n1)Cc1c(CO)cnc(C)c1O2	106	.	108	80
CCn1nnc2cc(C(=O)OCC(=O)Nc3cc(F)ccc3F)ccc21	.	-6	99	94
COc1ccc2[nH]cc(CCNC(=O)c3cnn(-c4ccc(C)cc4)c3C3CCN(C(=O)OC(C)(C)C)CC3)c2c1	105	.	112	96
Cc1cc(C)n(CC(=O)NCc2cc(-c3nn(C)c(=O)c4ccccc34)ccc2C)n1	104	7	90	97
CCOc1ccc(-n2c(C)nc3cc(C(=O)NCc4ccccc4Cl)ccc32)cc1	99	.	86	86
CN1CCCN(C(=O)c2ccc3c(c2)OCO3)c2nc3ccccc3nc21	.	-30	76	92
CCC(=O)n1nc(-c2ccccc2)nc1NCc1ccco1	101	.	93	88
COC(=O)c1sc(-c2ccccc2)cc1NC(=O)c1cccc(F)c1	107	-14	100	91

(next part)
SMILES	GIV Gai3 FP	HCMV UL50-53 inh	Sa growth inh	Sa growth inh second temp
CC1(C)Cc2c(sc(N3C(=O)C4CC=C(Cl)CC4C3=O)c2C#N)CO1 (centres undefined)	97	-6	96	85
CCC(C)(C)NS(=O)(=O)c1cc(-c2cc(C)no2)ccc1C	106	.	73	85
CC(C)Cn1c(N)c(C(=O)COC(=O)c2ccncc2)c(=O)n(C)c1=O	.	-31	82	83
CCc1cccc(NC(=O)C(c2ccccc2)N2Cc3ccccc3C2=O)c1 (centres undefined)	107	.	104	89
CCn1c(SCCOc2ccc(OC)cc2)nc2ccccc21	98	.	81	84
Cc1cccc(C)c1NC1=NC(C)(C)N=C(N)N1	103	-19	94	80
COc1ccc2c(c1)c(C(=O)N1CCN(c3ccccc3)CC1)c(C)n2-c1ccccc1	99	-6	.	.
CCC(=O)N1CCc2cc(Br)c(S(=O)(=O)NCCN3CCN(c4ccccc4)CC3)cc21	105	14	.	.
N#Cc1c(N)nc(SCC(=O)c2ccc3ccccc3c2)c(C#N)c1-c1cccc(F)c1	.	-3	100	78
CCN(c1ccccc1)S(=O)(=O)c1nnc(NC(=O)c2cccs2)s1	100	-3	97	54
CCN1CCOC(=O)C1CC(=O)Nc1ccc(C)c(Cl)c1 (centres undefined)	107	10	79	71
COC(=O)c1c(O)c(C=Nc2ccc(C)cc2)c(=O)n2c1CCC2	.	-26	80	96
COc1cccc(Cn2c(=O)n(Cc3ccccc3)c(=O)c3cccnc32)c1	102	.	110	89
CCOc1ccc(C(=O)c2cn(CC(=O)Nc3ccc(F)cc3)c3cc4c(cc3c2=O)OCO4)cc1	110	21	98	96
CC1CC(N(C(=O)c2ccc(Cl)cc2)c2ccccc2)c2ccccc2N1C(=O)c1ccc(Cl)cc1 (centres undefined)	96	-10	.	.

15 entries from above, arranged by length of the SMILES, rising:
SMILES	GIV Gai3 FP	HCMV UL50-53 inh	Sa growth inh	Sa growth inh second temp
Cc1cccc(C)c1NC1=NC(C)(C)N=C(N)N1	103	-19	94	80
CCn1c(SCCOc2ccc(OC)cc2)nc2ccccc21	98	.	81	84
CCC(=O)n1nc(-c2ccccc2)nc1NCc1ccco1	101	.	93	88
CCN1CCOC(=O)C1CC(=O)Nc1ccc(C)c(Cl)c1 (centres undefined)	107	10	79	71
CCC(C)(C)NS(=O)(=O)c1cc(-c2cc(C)no2)ccc1C	106	.	73	85
COC(=O)c1sc(-c2ccccc2)cc1NC(=O)c1cccc(F)c1	107	-14	100	91
COC(=O)c1c(O)c(C=Nc2ccc(C)cc2)c(=O)n2c1CCC2	.	-26	80	96
CCc1cccc(NC(=O)C(c2ccccc2)N2Cc3ccccc3C2=O)c1 (centres undefined)	107	.	104	89
COc1cccc(Cn2c(=O)n(Cc3ccccc3)c(=O)c3cccnc32)c1	102	.	110	89
CC1(C)Cc2c(sc(N3C(=O)C4CC=C(Cl)CC4C3=O)c2C#N)CO1 (centres undefined)	97	-6	96	85
CCOc1ccc(-n2c(C)nc3cc(C(=O)NCc4ccccc4Cl)ccc32)cc1	99	.	86	86
N#Cc1c(N)nc(SCC(=O)c2ccc3ccccc3c2)c(C#N)c1-c1cccc(F)c1	.	-3	100	78
CCC(=O)N1CCc2cc(Br)c(S(=O)(=O)NCCN3CCN(c4ccccc4)CC3)cc21	105	14	.	.
CCOc1ccc(C(=O)c2cn(CC(=O)Nc3ccc(F)cc3)c3cc4c(cc3c2=O)OCO4)cc1	110	21	98	96
CC1CC(N(C(=O)c2ccc(Cl)cc2)c2ccccc2)c2ccccc2N1C(=O)c1ccc(Cl)cc1 (centres undefined)	96	-10	.	.

Carrying on.
SMILES	GIV Gai3 FP	HCMV UL50-53 inh	Sa growth inh	Sa growth inh second temp
CCCC12CN(C(=O)CC)CC(CCC)(CN(C(=O)CC)C1)C2=O	103	.	103	89
COC(=O)c1c(-c2cccs2)csc1NC(=O)COc1ccc(C(C)C)cc1	106	-38	102	86
CC(=O)Nc1nc2c(Cl)cccc2s1	107	-4	103	115
CN1C(=O)C(CC(=O)O)c2ccccc21 (centres undefined)	102	-12	117	94
CCOC(=O)c1c(-c2ccccc2)csc1NC(=O)c1cc(-c2ccc(C)c(F)c2)on1	103	-8	119	87
CCc1nnc(SCc2nc(-c3cccc(C)c3)oc2C)c2cc3sc(C)cc3n12	104	.	113	96
O=C(NCc1ccc(F)cc1)c1ccc(CS(=O)Cc2ccc(Cl)cc2)o1 (centres undefined)	108	.	99	95
COc1ccc(/C=C2\SC(=O)N(CCNC(=O)/C=C/c3ccco3)C2=O)cc1	.	-34	85	86
CN(CC(=O)NCc1ccco1)C(=O)c1ccc(-c2ccc(Cl)cc2)s1	.	-11	121	103
CCOCCn1c(C2CCCN2C(C)=O)nc2ccccc21 (centres undefined)	106	-22	.	.
O=S(=O)(CC(c1ccccc1)N1CCCCC1)c1ccc(Cl)cc1 (centres undefined)	104	4	103	84
O=S(=O)(/C=C/c1ccccc1)Nc1ccc(S(=O)(=O)N2CCOCC2)cc1	.	-33	83	93
COC(=O)c1cc(Cc2ccc(N)c(C(=O)OC)c2)ccc1N	98	4	87	78
c1ccc(-c2ccc(-c3cn4ccccc4n3)cc2)cc1	101	.	126	90
FC1(F)C2CC3CC(C2)CC1C3	.	-6	85	88

Following part
SMILES	GIV Gai3 FP	HCMV UL50-53 inh	Sa growth inh	Sa growth inh second temp
O=c1[nH]c2cc3c(cc2c(=O)n1Cc1nc(-c2cccnc2)no1)OCO3	105	-12	.	.
COC(=O)c1cc(C)nc2c1c(=O)nc(SCc1ccccc1F)n2C1CC1	98	.	87	89
COc1ccc(-c2cc3c(SCC(C)C)nccn3n2)cc1	102	-2	.	.
Cc1cccc(-n2c(C)cc(CNC(=O)NCC3CCCO3)c2C)c1 (centres undefined)	124&120	-13&3	95	98
COc1ccccc1N1CCN(C(=O)CN2C(=O)COc3ccc(S(=O)(=O)N4CCC(C)CC4)cc32)CC1	98	-32	103	85

Source: PubChem BioAssay (ICCB-Longwood Screening Facility, Harvard Medical School)

No enrichment for hits; about 0.82% have a hit in one of these screens.
